From PubChem BioAssay
Beta apoptosis: blocks beta cell apoptosis. INS-1E cytokine-induced death, ATP luminescence, 48 h; percent of positive-control rescue, neutral wells zero. protection from apoptosis, % (no concentration beside the values). 300,000 compounds, 0.8% hits;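 active means all replicates at 75% or more, or half of them and the mean; inconclusive means half reach 75% but not the mean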;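 further: 0% = cytokine-treated negative control wells and 100% = positive control rescue; higher means more ATP so stronger rescue from cytokine killing; wells of about 40 µL received 100 nL stock; the first replicate is given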
RanGTP-Impb inh: disruptors of Ran-importin-beta complex formation – biochemical, FRET, CFP-Ran, YFP-importin-beta, homogeneous, primary screen; cell-free CFP-Ran/YFP-importin-beta FRET ratio; 300,000 compounds, 1.1% hits; inhibition, % (test concentration not listed);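 active means most replicates above 15%; inconclusive means exactly half above 15%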;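 further: 0% = DMSO wells and 100% = Ran loaded with GDP instead of GTP; wells of about 40 µL received 100 nL stock; the first replicate is given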
A1 inh: inhibitors of the anti-apoptotic protein A1, read as caspase activation; MEF A1-2A-BIM cells, Caspase-Glo 3/7 luminescence, 3 h; percent of clofoctol response, vehicle zero; AID 2462; caspase activation, % (concentration not given with the values); 330,000 compounds, 0.066% hits;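 active means over half of replicate activation scores above 10%, or exactly half above 10 with the replicate mean above 10; inconclusive means replicate mean below 10 yet half the replicates above 10; inactive means over half of replicates below 10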;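 further: wells of about 30 µL received 50 nL stock; many hits fall short of the cut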
Calb FLC: C. albicans growth modulation with fluconazole. C. albicans CaCi-2 (fluconazole-resistant clinical isolate) + fluconazole, Alamar Blue growth, 48 h. 300,000 compounds, 0.57% hits. AID 1979. growth inhibition, % (concentration not given with the values);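 active means most replicates above 75%; inconclusive means exactly half above 75%; inactive means most below 75%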;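 further: all wells also contain fluconazole at 8 µg/ml as a sub-toxic cotreatment; 0% = median of DMSO wells and 100% = median of geldanamycin control wells; wells of about 8 µL received 7.5 nL stock; the first replicate is given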
T cruzi inh: T. cruzi replication inhibition; T. cruzi beta-gal in NIH3T3, luminescence, 90 h; inhibition, % (no concentration beside the values); 300,000 compounds, 1.4% hits; AID 1885;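 active means mean inhibition across valid replicates above about 55%, limit read from the data; inconclusive means mean below that limit but half or more replicates reach it; inactive means mean below it, under half of replicates reach it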;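 further: signal also drops with host cell toxicity which is not excluded here; 0% = plate median of DMSO wells and 100% = zero luminescence signal; higher percent means less beta-gal luminescence so fewer parasites; stock transfer was 50 nL into about 50 µL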
LANA-H2B inh: blocks KSHV LANA binding to histone H2A/H2B. inhibition, % (test concentration not listed). 320,000 compounds, 0.6% hits. cell-free LANA-H2A/H2B peptide, fluorescence polarization. Q9QR71; in the data active means inhibition mostly above about 10%, no sharp cut-off; inactive means mostly below about 6.7%;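 further: stock transfer was 7.5 nL into about 10 µL; 0% = median of vehicle wells and 100% = median of positive control wells; one replicate is shown; the record names a cut of 25% in any replicate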
AF4-AF9 inh: blocks AF4 peptide binding to human AF9. inhibition, % at 10 µM. 350,000 compounds, 0.47% hits. AlphaScreen, biotin-AF4 peptide binding to FLAG-AF9. P42568;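 active means every replicate reaching a set inhibition limit, whatever the replicate mean, cut at about 25% in these data; inconclusive means mean inhibition reaches that limit but some replicates miss it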;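 further: 0% = plate neutral control median and 100% = total signal loss; the record names both 10 and 1 µM as test concentration; the first replicate is given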
Target sequence (P42568 whole entry, looked up): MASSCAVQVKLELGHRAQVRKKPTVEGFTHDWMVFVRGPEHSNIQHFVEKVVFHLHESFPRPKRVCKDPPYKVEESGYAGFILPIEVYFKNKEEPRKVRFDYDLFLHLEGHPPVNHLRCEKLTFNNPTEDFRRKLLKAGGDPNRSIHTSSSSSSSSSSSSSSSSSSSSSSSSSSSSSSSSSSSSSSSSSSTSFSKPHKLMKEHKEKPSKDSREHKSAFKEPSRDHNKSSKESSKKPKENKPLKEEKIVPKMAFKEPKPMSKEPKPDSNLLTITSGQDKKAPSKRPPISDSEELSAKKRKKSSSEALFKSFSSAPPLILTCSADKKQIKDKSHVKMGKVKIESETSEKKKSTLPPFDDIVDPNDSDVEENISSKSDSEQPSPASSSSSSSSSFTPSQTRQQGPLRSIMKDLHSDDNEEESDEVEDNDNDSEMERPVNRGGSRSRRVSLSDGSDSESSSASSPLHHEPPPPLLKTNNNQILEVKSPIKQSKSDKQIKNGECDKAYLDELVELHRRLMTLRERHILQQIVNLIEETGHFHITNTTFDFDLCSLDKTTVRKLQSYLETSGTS
Vif TR-FRET: HIV-1 Vif–A3G interaction blockers – biochemical, TR-FRET, GST-Vif 1-94, biotin-A3G peptide, dose response retest, primary screen (AID 1117319); TR-FRET GST-Vif / biotin-A3G peptide binding; higher % means a stronger effect; test concentration not given here; strong numbers were not always called active; one-dose inhibition, %; IC50 in µM for titrated hits; 260,000 compounds, 0.57% hits;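 active means above the screen mean plus three standard deviations and confirmed in dose response; inconclusive means results disagree or hit not tested in dose response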;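 further: Vif residues 1-94 fused to GST binding biotinylated APOBEC3G peptide 110-148; 0% = full assay without inhibitor and 100% = GST in place of GST-Vif; retest series ran down from 100 µM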
* marks the source's active call; other numbers are inactive results; ? = inconclusive; . = no result given; & = joins results of further samples. Hits appear at their usual frequency; about 4.3% have a hit in one of these screens.

SMILES | Beta apoptosis | RanGTP-Impb inh | A1 inh | Calb FLC | T cruzi inh | LANA-H2B inh | AF4-AF9 inh | Vif TR-FRET
CCN(CC)C(=O)CSc1nc2ncc(Br)cc2[nH]1 | 5 | 3.7 | -0.3 | 1 | 2 | 5.1 | . | 0%
COc1ccc(CNC(=O)COC(=O)c2cc(-c3ccc(Cl)s3)nc3ccccc23)cc1 | 17 | 17* | 0.0 | -1 | -8 | 0.1 | . | -31%
CCOc1ccc(N2CC(C(=O)OC)CC2=O)cc1 (stereo not drawn) | 1 | -0.1 | 0.2 | -1 | -10 | -4.4 | . | 31%
Cc1c(NC(=O)C(C)OC(=O)C(NC(=O)c2ccco2)C(C)C)c(=O)n(-c2ccccc2)n1C (stereo not drawn) | -7 | 2.8 | -1.3 | 1 | -27 | -1.5 | . | -5%
O=C1C(=O)N(c2nccs2)C(c2ccccc2F)/C1=C(\O)c1ccc2c(c1)OCCO2 (stereo not drawn) | -7 | 6.2 | 0.0 | -2 | -27 | -1.4 | 1.5 | .
CCOC(=O)/C(C#N)=C\c1ccc(OCC(=O)Nc2ccc(C)cc2C)c(OC)c1 | -8 | -1.8 | 0.8 | -3 | -3 | 2.1 | . | 0%
Cc1cc(NC(=O)Nc2cccs2)no1 | -8 | -3.9 | -0.2 | . | 2 | 3.1 | . | 5%
O=C(COC(=O)c1ccc(Br)cc1)Nc1cccnc1Cl | -2 | . | -0.1 | . | . | 4.9 | -0.8 | .
COc1ccc(NC(=O)CC2C(=O)N(C)C(=S)N2Cc2ccc3c(c2)OCO3)cc1 (stereo not drawn) | -6 | 3.2 | 0.6 | 1 | 4 | 1.4 | . | ?
NS(=O)(=O)c1ccc(-c2ccc(C=C3C(=O)c4ccccc4C3=O)o2)cc1 | -3 | -0.8 | -0.6 | 9 | -19 | 0.1 | 2.5 | .
COc1cc(/C=C/C(=O)Nc2cc(S(=O)(=O)N3CCOCC3)ccc2N2CCCC2)cc(OC)c1OC | 3 | 1.5 | -0.5 | -17 | -4 | 0.8 | 4.2 | ?
NC(=O)C1CCN(C(=O)c2ccc3nc(N4CCCCC4)sc3c2)CC1 | -5 | 3.1 | 0.7 | -3 | -15 | -2.4 | -0.6 | 13%

Looked up above.
Vif TR-FRET, NC(=O)C1CCN(C(=O)c2ccc3nc(N4CCCCC4)sc3c2)CC1 : 13%
A1 inh, O=C(COC(=O)c1ccc(Br)cc1)Nc1cccnc1Cl : -0.1
RanGTP-Impb inh, COc1cc(/C=C/C(=O)Nc2cc(S(=O)(=O)N3CCOCC3)ccc2N2CCCC2)cc(OC)c1OC : 1.5

Later entries:
SMILES | Beta apoptosis | RanGTP-Impb inh | A1 inh | Calb FLC | T cruzi inh | LANA-H2B inh | AF4-AF9 inh | Vif TR-FRET
O=C(NC1CCN(S(=O)(=O)c2ccc(Cl)c(F)c2)CC1)c1cccnc1 | -3 | 1.0 | 0.5 | 1 | 11 | -0.7 | 1.9 | .
COc1cc(OC)cc(C(=O)N[C@H](C(=O)Nc2c(C)n(C)n(-c3ccccc3)c2=O)C(C)C)c1 | -1 | . | -0.2 | . | . | -6.5 | 3.5 | .
CCN(CC)S(=O)(=O)c1ccc(N2CCOCC2)c(NC(=O)CN2C(=O)NC(C)(c3ccccc3)C2=O)c1 (stereo not drawn) | 5 | -1.5 | 0.2 | -1 | 12 | -0.8 | -28 | 3%
CCOc1ccc(C(=O)OCc2nnc(-c3cccs3)o2)cc1OC | -1 | 2.8 | 0.2 | ? | -3 | 1.3 | . | 3%
C=CCn1c(=NC(=O)c2cc(Cl)sc2Cl)sc2cc(S(N)(=O)=O)ccc21 | 10 | ? | -0.3 | 10 | 28 | 0.5 | . | -17%
Cn1cc(-c2nnnn2-c2ccc(Cl)cc2)c(C(F)(F)F)n1 | -5 | 0.0 | 0.6 | 3 | -6 | 1.6 | . | 2%
COc1cccc(OC)c1C(=O)O/N=C(\N)c1ccncc1 | 2 | 1.4 | 0.6 | 17 | -7 | -2.1 | . | -3%
CCN(CC)CCCNc1nc(-n2nc(C)cc2C)nc2sc3c(c12)CC(C)(C)OC3 | -2 | -1.7 | -0.7 | -19 | 31 | 2.2 | 2.8 | -13%
CSc1ccccc1OCc1cc(C(=O)NCc2cnc(C)cn2)no1 | -3 | 5.7 | -0.7 | 1 | -3 | -3.1 | 2.5 | -1%
COc1ccc(OC)c(NC(=O)C(CC(=O)O)Cc2ccc(Cl)cc2)c1 (stereo not drawn) | -4 | 2.8 | -0.8 | -4 | -9 | 7.3 | . | 9%
Cc1ccc(S(=O)(=O)N2CCOC2CNC(=O)C(=O)NCC(C)C)cc1 (stereo not drawn) | 2 | 2.1 | 0.0 | 3 | -4 | 2.6 | -0.4 | .
Cc1cccc(N2C(=O)CSC23CCCCC3)c1 | 4 | 1.4 | 0.5 | -5 | 1 | 1.3 | -8.1 | -8%
CCOC(=O)c1ncn2c1[C@@H]1CCNC1C(=O)c1cc(OC)ccc1-2 (stereo partly drawn) | -5 | . | 0.0 | . | . | 4.2 | -5.2 | .
COc1ccc(C(=O)CSc2nnc(-c3cccnc3)n2Cc2ccco2)cc1 | . | -6.2 | 0.1 | 5 | -8 | 2.0 | . | 1%
Cc1cccc(-c2nc3c(c(=O)c4ccccc4n3C)c(=O)n2-c2ccccc2)c1 | -8 | 2.7 | 0.8 | 4 | -3 | -0.8 | . | ?
O=C(COC(=O)/C=C/c1cccc([N+](=O)[O-])c1)Nc1ccc(Cl)cn1 | -2 | . | -1.4 | . | . | 3.4 | 0.3 | .
Cc1cccnc1NC(=O)c1cc2ccccc2oc1=O | . | 0.3 | -7.6 | 22 | -6 | 2.1 | 1.0 | 7%
COc1ccc(CC(=O)OC(C)C(=O)NCc2ccc3c(c2)OCO3)cc1OC (stereo not drawn) | 2 | 5.3 | -0.3 | -6 | -3 | -0.3 | -1.8 | .
O=C(CN1C(=O)NC(Cc2c[nH]c3ccccc23)C1=O)NCC(F)(F)F (stereo not drawn) | 0 | 1.8 | -0.5 | 0 | -10 | -0.7 | 2.6 | -8%
COC(=O)c1c(C)[nH]c(C(=O)NCc2ccco2)c1C | 1 | 2.7 | -0.7 | 2 | -5 | -2.2 | 3.5 | 7%
CCOC(=O)c1nc(NCc2ccccc2C)c2ccccc2n1 | 1 | -0.7 | 0.2 | 1 | 13 | -1.9 | -2.6 | 0%
O=C(N1CCCC1)C12CC3CC(CC(C3)C1)C2 | 1 | 1.4 | 0.1 | 2 | 7 | -8.2 | . | 0%
CCc1cccc(NC(=O)C2CCCN2S(=O)(=O)c2ccc3c(c2)n(C)c(=O)c(=O)n3C)c1 (stereo not drawn) | -3 | -2.9 | 0.1 | 0 | 3 | -3.7 | 1.7 | 10%
c1csc(-c2noc(CN3CCOCC3)n2)c1 | 6 | 3.8 | -0.2 | -8 | -8 | 0.1 | -0.1 | 4%

Structures above printed as active in RanGTP-Impb inh.
SMILES	RanGTP-Impb inh	LANA-H2B inh	AF4-AF9 inh	Vif TR-FRET
COc1ccc(CNC(=O)COC(=O)c2cc(-c3ccc(Cl)s3)nc3ccccc23)cc1	17*	0.1	.	-31%

Later entries.
SMILES | Beta apoptosis | RanGTP-Impb inh | A1 inh | Calb FLC | T cruzi inh | LANA-H2B inh | AF4-AF9 inh | Vif TR-FRET
Cc1ccc(N(CC(=O)NCc2ccco2)S(=O)(=O)c2ccccc2)cc1 | -5 | -1.5 | -0.2 | ? | -6 | 2.4 | . | 7%
Cc1ccc(S(=O)(=O)Nc2ccccc2CNc2c(C)n(C)n(-c3ccccc3)c2=O)cc1 | 1 | -1.3 | 1.0 | -29 | -1 | 1.1 | 3.7 | 14%&3%
CCCCc1c(C)c(C#N)c2nc3ccccc3n2c1NCCN(C)C | . | 4.9 | . | 35 | 40 | . | -32 | -5%
COc1ccc(C(=O)c2oc3nc(C)cc(C)c3c2N)cc1 | 4 | -1.5 | 0.0 | -10 | 3 | 0.7 | . | 0%
O=C(CN1C(=O)C2CC=CCC2C1=O)Nc1nc2ccccc2s1 (stereo not drawn) | -8 | -1.5 | 0.9 | -21 | 6 | -3.2 | -1.7 | 8%
CCC1=C(OC(=O)N(CC)CC)N2C(=O)OC(=NCC3CC3)[C@]2(C)[C@H]2C1=CC[C@H]1C(=O)N(CC(=O)OC)C(=O)[C@H]12 | -2 | . | 1.6 | . | . | -0.6 | 3.0 | -5%
O=C(C1=C[C@@H](C2CC2)C[C@@H](OCc2ccc(CO)cc2)O1)N1CCOCC1 | 2 | -0.1 | 0.2 | -12 | 11 | 3.3 | -0.7 | 3%
COc1ccc(NC(=O)COC(=O)CCC2CCCCC2)cc1 | -4 | . | 1.0 | . | . | 1.0 | -0.7 | 7%
O=C(O)CCCCCn1c(SCC(=O)c2ccc(O)c(O)c2)nc2ccsc2c1=O | -8 | 9.5 | 0.0 | -9 | -16 | 5.5 | . | 15%
O=C(O)COc1ccc(/C=C/C(=O)c2ccc3ccccc3c2)cc1 | -7 | 3.7 | 0.3 | 4 | 2 | -1.4 | . | .
Cc1ccc(S(=O)(=O)NC2CCOC(C)(C)C2)cc1 (stereo not drawn) | -2 | -1.1 | -0.1 | 0 | 1 | 0.0 | . | 5%
Cc1ccc(OCc2n[nH]c(=S)n2-c2ccc(Cl)cc2)cc1 | 2 | 3.4 | 1.1 | 7 | -6 | -2.1 | -6.6 | 0%
O=C(CNC(=O)N1CC(=O)Nc2ccccc21)Nc1cccc(F)c1 | -4 | 5.7 | -0.2 | . | 5 | -4.6 | 3.3 | -6%
COCc1cc(C)nc2oc(C(=O)c3ccccc3)c(N)c12 | -5 | 2.6 | -0.5 | 7 | -13 | 2.8 | -2.1 | 1%
NC(=O)C1CCN(C(=O)c2cc(S(=O)(=O)N3CCOCC3)ccc2Cl)CC1 | -2 | 0.8 | 0.6 | 11 | -16 | -2.2 | -1.1 | 3%
N#Cc1ccsc1NC(=O)CCc1ccccc1 | 2 | -0.2 | -6.3 | -9 | 7 | -1.2 | -3.1 | -3%
CCn1ncc(CNC(=O)CCCSc2nc(-c3ccco3)cc(C(F)(F)F)n2)c1C | 3 | -0.4 | -0.2 | -8 | 0 | 1.3 | . | -4%
COc1cccc(CNn2cnnc2)c1OCc1ccccc1F | 1 | 4.7 | 0.7 | -6 | -16 | 1.5 | . | 14%
CCCCNc1nc(-c2ccccc2)nc(-n2ccnc2)n1 | 6 | -2.3 | -0.8 | -3 | 31 | 1.3 | . | 19%
Cc1ccc(NS(=O)(=O)c2ccc(C(=O)NCC(c3ccco3)N3CCCCC3)cc2)cc1 (stereo not drawn) | 6 | -3.1 | 0.2 | 4 | 1 | 2.4 | -5.7 | 0%
CCCN1CCN(CCCNC(=O)c2ccccc2NC(=O)C2=C(C)OCCS2)CC1 | -8 | 4.7 | 0.0 | -14 | 11 | -0.5 | -7.2 | -12%
CCOC(=O)N1CCN(C(=O)c2cnc(Nc3ccccc3OC)c3ccccc23)CC1 | -4 | . | 0.9 | . | . | 16 | . | 33%
CC1=NN(c2ccc(C(=O)O)cc2)C(=O)/C1=C\c1ccc(OC(=O)c2cccs2)cc1 | -10 | . | 0.1 | -19 | 12 | -3.2 | -1.8 | ?
